Screening results (PubChem BioAssay)
HIV Env fusion – inhibitors of HIV Env-mediated cell fusion | HeLa-JRFL Env/CEM21 cell fusion, luciferase | inhibition, % at 12.3 µM | 360,000 compounds, 1.1% hits | AID 651610;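 active = mean replicate inhibition score of at least 50 and every replicate individually at or above 50; inconclusive = only one of the two criteria met; inactive = mean below 50 and not all replicates reaching 50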;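 also: 0% = plate neutral controls and 100% = maraviroc near 300 nM; one replicate is shown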
Yeast UUG start – yeast start codon fidelity modulation; S. cerevisiae UUG-firefly luciferase reporter, luminescence/redox ratio; activity score, % at 18.7 µM; 350,000 compounds, 0.13% hits;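 active = replicate mean at a twofold rise or more, about +100% in these data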;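 also: firefly luciferase made from a UUG start codon reports start codon fidelity; reporter light over untreated wells divided by growth signal over untreated wells; some hits fall short of that in this replicate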
* = called active by the depositor; ? = inconclusive; [ ] = dose if it differs, or a comment. Some of the compounds tested (hit frequency here may not be typical).

HIV Env fusion,Yeast UUG start,structure
-0.5[16.7 µM],10.7,C[C@@H]1CN([C@@H](C)CO)C(=O)c2cc(NS(C)(=O)=O)ccc2O[C@@H](C)CCCCO[C@H]1CN(C)Cc1ccncc1
18.8[16.7 µM],15.7,C[C@H]1CN([C@@H](C)CO)C(=O)Cc2cc(NS(=O)(=O)c3ccc(F)cc3)ccc2O[C@@H]1CN(C)Cc1ccc(C(F)(F)F)cc1
-181.2[16.7 µM],-0.9,Cc1noc(C)c1S(=O)(=O)Nc1ccc2c(c1)C(=O)N([C@H](C)CO)C[C@@H](C)[C@H](CN(C)C(=O)Nc1ccc(F)cc1)OCCCC[C@@H](C)O2
0.9[16.7 µM],6.2,C[C@@H]1CN([C@@H](C)CO)C(=O)c2cc(NC(=O)NC3CCCCC3)ccc2O[C@@H]1CN(C)C
9.0[16.7 µM],-2.9,C[C@@H]1CN([C@H](C)CO)C(=O)c2cc(N(C)C)ccc2O[C@@H](C)CCCCO[C@@H]1CN(C)C(=O)c1ccccc1
33.2[16.7 µM],-0.7,COc1ccc(COCC23N=C4SCC(=O)N4[C@H](c4ccccc4O2)[C@H]3COC(=O)c2ccccc2)cc1
-1.6[16.7 µM],29.2,C[C@H]1CN([C@@H](C)CO)C(=O)c2cc(-c3ccncc3)cnc2O[C@@H]1CN(C)S(=O)(=O)c1ccccc1
-6.4[16.7 µM],17.8,COCC#Cc1cnc2c(c1)C(=O)N([C@@H](C)CO)C[C@H](C)[C@@H](CN(C)C(=O)Nc1ccccc1OC)O2
23.6[16.7 µM],9.5,C[C@@H]1CN([C@@H](C)CO)C(=O)c2cc(C#CCC3CCCC3)cnc2O[C@@H]1CN(C)S(=O)(=O)c1cccs1
10.5[16.7 µM],10.6,COc1cccc(C(=O)Nc2ccc3c(c2)C(=O)N(C)[C@@H]2CC[C@@H](CC(=O)NCc4ccc(F)cc4)O[C@@H]2CO3)c1
-5.5[16.7 µM],-8.2,C[C@H](CO)N1C[C@H](C)[C@H](CN(C)C(=O)C2CCOCC2)Oc2ncc(-c3cccnc3)cc2C1=O
10.6[16.7 µM],-4.3,CCNC(=O)Nc1ccc2c(c1)C(=O)N(C)[C@H]1CC[C@H](CC(=O)NCc3ccc(F)cc3)O[C@H]1CO2
1.0[16.7 µM],9.8,C[C@H](CO)N1C[C@H](C)[C@@H](CN(C)C(=O)c2cccnc2)Oc2ncc(-c3ccccc3)cc2C1=O
8.1[16.7 µM],-3.6,COc1ccc(NC(=O)N(C)C[C@@H]2Oc3ccc(NS(=O)(=O)c4ccc(Cl)cc4)cc3C(=O)N([C@@H](C)CO)C[C@H]2C)cc1
29.4[16.7 µM],19.9,C[C@H](CO)N1C[C@H](C)[C@@H](CN(C)C(=O)Nc2ccc(C(F)(F)F)cc2)Oc2ccc(N(C)C)cc2CC1=O
-3.2[16.7 µM],16.9,CCNC(=O)C[C@@H]1CC[C@@H]2[C@@H](COc3ccc(NC(=O)Nc4ccccc4OC)cc3C(=O)N2C)O1
-2.3[16.7 µM],-23.0,C[C@@H]1CN([C@@H](C)CO)S(=O)(=O)c2ccc(-c3cncnc3)cc2O[C@H]1CN(C)C(=O)Cc1cccnc1
-16.5[16.7 µM],4.0,CC(C)NC(=O)Nc1cccc2c1O[C@@H](CN(C)S(=O)(=O)c1ccc(F)cc1)[C@@H](C)CN([C@@H](C)CO)C2=O
16.5[16.7 µM],13.2,CCC(=O)N(C)C[C@@H]1Oc2ncc(C#Cc3ccccc3OC)cc2C(=O)N([C@H](C)CO)C[C@H]1C
-12.0[16.7 µM],-3.3,C[C@H](CO)N1C[C@H](C)[C@@H](CN(C)C)Oc2ncc(-c3cccc(C#N)c3)cc2C1=O
-5.8[16.7 µM],-6.1,C[C@@H]1CN([C@H](C)CO)S(=O)(=O)c2ccc(C#CC3CC3)cc2O[C@@H]1CN(C)C(=O)c1ccncc1
-4.3[16.7 µM],7.7,COc1ccc(NC(=O)Nc2ccc3c(c2)C(=O)N([C@@H](C)CO)C[C@@H](C)[C@H](CN(C)Cc2ccc(C(=O)O)cc2)OCCCC[C@H](C)O3)cc1
-11.8[16.7 µM],-0.7,C[C@@H]1CN([C@H](C)CO)C(=O)c2cc(NC(=O)NC3CCCCC3)ccc2O[C@@H](C)CCCCO[C@H]1CN(C)S(=O)(=O)c1cn(C)cn1
30.0[16.7 µM],9.9,C[C@@H]1CCCCO[C@H](CN(C)C(=O)Cc2ccccc2)[C@H](C)CN([C@@H](C)CO)C(=O)c2cc(NC(=O)c3ccncc3)ccc2O1
0.2[16.7 µM],-4.1,Cn1cnc(S(=O)(=O)N[C@H]2C=C[C@H](CC(=O)NCC3CCCCC3)O[C@@H]2CO)c1

One compound at a time (already shown).
CCNC(=O)Nc1ccc2c(c1)C(=O)N(C)[C@H]1CC[C@H](CC(=O)NCc3ccc(F)cc3)O[C@H]1CO2 is listed with HIV Env fusion: 10.6[16.7 µM]; Yeast UUG start: -4.3
C[C@@H]1CN([C@H](C)CO)S(=O)(=O)c2ccc(C#CC3CC3)cc2O[C@@H]1CN(C)C(=O)c1ccncc1 is listed with HIV Env fusion: -5.8[16.7 µM]; Yeast UUG start: -6.1

Carrying on:
HIV Env fusion,Yeast UUG start,structure
-13.4[16.7 µM],1.6,CCC(=O)N(C)C[C@@H]1Oc2ncc(-c3ccccc3OC)cc2C(=O)N([C@H](C)CO)C[C@H]1C
2.8[16.7 µM],-11.0,CCS(=O)(=O)N[C@H]1C=C[C@@H](CC(=O)NCc2ccc(Cl)cc2)O[C@@H]1CO
-12.7[16.7 µM],4.7,COc1ccc(S(=O)(=O)N[C@H]2C=C[C@H](CC(=O)NCc3ccccc3F)O[C@@H]2CO)cc1
?,10.5,C/C=C/c1ccc2c(c1)O[C@H](CN(C)Cc1ccc(F)cc1)[C@@H](C)CN([C@H](C)CO)S2(=O)=O
-21.2[16.7 µM],-1.2,CNC[C@H]1OCCCC[C@@H](C)Oc2ccc(NS(=O)(=O)c3ccc(Cl)cc3)cc2C(=O)N([C@H](C)CO)C[C@@H]1C
2.9[16.7 µM],2.3,C[C@@H]1CN([C@@H](C)CO)C(=O)c2cc(NS(=O)(=O)c3cn(C)cn3)ccc2O[C@@H]1CN(C)Cc1ccc(C(F)(F)F)cc1
-5.4[16.7 µM],-14.2,O=C(C[C@H]1CC[C@H](NC(=O)Nc2ccccc2)[C@@H](CO)O1)NCc1ccccn1
22.1[16.7 µM],4.1,CCCC#Cc1cnc2c(c1)C(=O)N([C@@H](C)CO)C[C@H](C)[C@H](CN(C)Cc1ccncc1)O2
55.6*[16.7 µM],23.8,C[C@@H]1CN([C@@H](C)CO)C(=O)Cc2cc(NS(=O)(=O)c3ccc(F)cc3)ccc2O[C@H]1CN(C)Cc1ccc(C(F)(F)F)cc1
20.2[16.7 µM],8.1,C[C@@H]1CCCCO[C@H](CN(C)Cc2ccncc2)[C@H](C)CN([C@H](C)CO)C(=O)c2cc(NS(=O)(=O)c3ccc(F)cc3)ccc2O1
0.9[16.7 µM],9.0,C[C@H](CO)N1C[C@H](C)[C@H](CN(C)C(=O)Nc2ccc(F)cc2)Oc2ccc(NC(=O)Cn3cnnn3)cc2C1=O
-120.6[16.7 µM],8.5,C[C@@H]1CN([C@H](C)CO)C(=O)Cc2cc(N(C)C)ccc2O[C@@H]1CN(C)Cc1ccc(C(=O)Nc2ccccc2N)cc1
-5.7[16.7 µM],9.5,C[C@@H]1CN([C@H](C)CO)C(=O)c2cc(/C=C/c3ccccc3)cnc2O[C@H]1CN(C)C(=O)Nc1ccc(C(F)(F)F)cc1
-9.5[16.7 µM],-14.5,Cc1noc(C)c1S(=O)(=O)Nc1ccc2c(c1)CC(=O)N([C@@H](C)CO)C[C@H](C)[C@@H](CN(C)Cc1ccncc1)O2
-5.5[16.7 µM],15.2,C[C@H](CO)N1C[C@H](C)[C@H](CN(C)C(=O)Nc2ccc(F)cc2)Oc2ncc(-c3cccnc3)cc2C1=O
-41.5[16.7 µM],11.5,O=S(=O)(N[C@@H]1CC[C@@H](CCNS(=O)(=O)c2ccccc2Cl)O[C@@H]1CO)c1ccccc1
-7.3[16.7 µM],10.6,C[C@@H]1CN([C@@H](C)CO)C(=O)Cc2cc(NC(=O)Cn3cnnn3)ccc2O[C@@H]1CN(C)Cc1ccc(Oc2ccccc2)cc1
-10.9[16.7 µM],1.2,C[C@@H]1CCCCO[C@@H](CN(C)C)[C@H](C)CN([C@H](C)CO)C(=O)c2cc(NC(=O)Nc3ccccc3)ccc2O1
-10.6[16.7 µM],-6.8,COc1ccc(NC(=O)N(C)C[C@@H]2OCCCC[C@@H](C)Oc3ccc(NC(=O)NC(C)C)cc3C(=O)N([C@H](C)CO)C[C@@H]2C)cc1
-10.7[16.7 µM],-1.4,C[C@@H]1CN([C@@H](C)CO)C(=O)Cc2cc(NS(=O)(=O)c3cn(C)cn3)ccc2O[C@H]1CN(C)C(=O)Nc1ccc(F)cc1
-12.5[16.7 µM],-2.6,C[C@@H]1CN([C@@H](C)CO)C(=O)c2cc(-c3ccccc3)cnc2O[C@H]1CN(C)C(=O)NC1CCCC1
-10.9[16.7 µM],-3.3,C[C@@H]1CN([C@@H](C)CO)S(=O)(=O)c2ccc(C#CC(C)(C)O)cc2O[C@@H]1CN(C)Cc1ccccc1
-73.1[16.7 µM],8.5,COc1ccc(S(=O)(=O)N(C)C[C@H]2OCCCC[C@@H](C)Oc3ccc(N(C)C)cc3C(=O)N([C@@H](C)CO)C[C@@H]2C)cc1
-8.2[16.7 µM],1.2,C[C@@H]1CN([C@@H](C)CO)C(=O)Cc2cc(NC(=O)Nc3cccc4ccccc34)ccc2O[C@@H]1CN(C)Cc1ccc(Cl)c(Cl)c1
-9.7[16.7 µM],4.1,CNC(=O)C[C@H]1CC[C@@H]2[C@@H](COc3ccc(NS(=O)(=O)c4ccccc4C)cc3C(=O)N2C)O1

In the list so far, these have two or more sulfur atoms:
HIV Env fusion,Yeast UUG start,structure
23.6[16.7 µM],9.5,C[C@@H]1CN([C@@H](C)CO)C(=O)c2cc(C#CCC3CCCC3)cnc2O[C@@H]1CN(C)S(=O)(=O)c1cccs1
-41.5[16.7 µM],11.5,O=S(=O)(N[C@@H]1CC[C@@H](CCNS(=O)(=O)c2ccccc2Cl)O[C@@H]1CO)c1ccccc1

Other compounds.
HIV Env fusion,Yeast UUG start,structure
-0.1[16.7 µM],-7.3,C[C@@H]1CN([C@@H](C)CO)C(=O)c2cc(NS(=O)(=O)c3ccccc3)ccc2O[C@@H](C)CCCCO[C@H]1CN(C)C(=O)Nc1cccc2ccccc12
2.7[16.7 µM],-14.4,N#C[C@H]1[C@@H](c2ccc(C#CC3CCCCC3)cc2)[C@@H](CO)N1S(=O)(=O)c1ccccc1
-0.2[16.7 µM],-19.1,C[C@H](CO)N1C[C@H](C)[C@@H](CN(C)C(=O)Nc2ccc3c(c2)OCO3)OCCCC[C@H](C)Oc2ccc(NC(=O)Nc3ccc(C(F)(F)F)cc3)cc2C1=O
10.6[16.7 µM],-14.2,C[C@H](CO)N1C[C@H](C)[C@@H](CN(C)C(=O)C2CCOCC2)Oc2ncc(-c3ccccc3)cc2C1=O
5.7[16.7 µM],16.4,C[C@H](CO)N1C[C@H](C)[C@H](CN(C)S(=O)(=O)c2cccs2)Oc2c(NS(=O)(=O)c3cn(C)cn3)cccc2C1=O
-8.8[16.7 µM],-7.5,Cc1noc(C)c1S(=O)(=O)Nc1ccc2c(c1)CC(=O)N([C@@H](C)CO)C[C@H](C)[C@H](CN(C)C(=O)NC(C)C)O2
-11.2[16.7 µM],6.5,C[C@@H]1CN([C@@H](C)CO)S(=O)(=O)c2ccc(C#CC(C)(C)O)cc2O[C@H]1CN(C)Cc1ccccc1
1.9[16.7 µM],-5.7,C[C@@H]1CCCCO[C@H](CN(C)Cc2ccccc2)[C@H](C)CN([C@@H](C)CO)C(=O)c2cc(N(C)C)ccc2O1
-4.9[16.7 µM],1.2,COc1ccc(CN(C)C[C@H]2OCCCC[C@H](C)Oc3ccc(NS(=O)(=O)c4c(C)noc4C)cc3C(=O)N([C@H](C)CO)C[C@H]2C)cc1
-5.8[16.7 µM],15.3,CCCNC(=O)N(C)C[C@@H]1Oc2cc(Br)ccc2S(=O)(=O)N([C@H](C)CO)C[C@H]1C
-9.3[16.7 µM],-2.0,C[C@@H]1CN([C@@H](C)CO)C(=O)c2cc(NC(=O)CCC(F)(F)F)ccc2O[C@@H](C)CCCCO[C@H]1CN(C)C(=O)c1ccncc1
27.9[16.7 µM],-1.9,COc1cccc(C#Cc2ccc3c(c2)O[C@H](CN(C)C(C)=O)[C@H](C)CN([C@@H](C)CO)S3(=O)=O)c1
-17.3[16.7 µM],1.3,CC(C)C#Cc1cnc2c(c1)C(=O)N([C@@H](C)CO)C[C@H](C)[C@H](CN(C)C(=O)c1cnccn1)O2
-25.2[16.7 µM],3.9,Cc1noc(C)c1S(=O)(=O)N(C)C[C@@H]1OCCCC[C@@H](C)Oc2ccc(NC(=O)CCCN(C)C)cc2C(=O)N([C@H](C)CO)C[C@H]1C
2.6[16.7 µM],-25.3,CO[C@@H]1CN(C)C(=O)c2ccc(NS(=O)(=O)C3CCCCC3)cc2OC[C@H](C)NC[C@H]1C
-3.6[16.7 µM],6.3,CC(=O)N[C@@H]1CC[C@@H](CC(=O)NCc2ccc(Cl)cc2)O[C@H]1CO
30.4[16.7 µM],17.8,CC(C)NC(=O)Nc1ccc2c(c1)C(=O)N([C@@H](C)CO)C[C@@H](C)[C@H](CN(C)S(C)(=O)=O)OCCCC[C@@H](C)O2
